High-throughput results as filed in PubChem.
YjeE inh – inhibitors of E. coli YjeE (TsaE). Potency, µM. AID 605. P0AF67. purified YjeE, fluorescence polarisation of a bound ADP probe. actives 0.05% (n = 71,000); active = well fitted falling curve; inconclusive = weaker or top-dose-only fall, or a rising curve; inactive = flat or poorly fitted curve;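 further: top concentration of the series not given in the record; excess ADP was the control for the full effect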
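Fluorescence polarization of a BODIPY Texas Red–ADP probe (2 uM) bound to purified YjeE (10 uM) was read after 15 min room-temperature incubation with compounds. Loss of polarization marks inhibitors; ADP serves as titrated control.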
Bst PK mod – pyruvate kinase (B. stearothermophilus) modulation; partly purified Bacillus stearothermophilus pyruvate kinase, luminescence ATP production; ribose 5-phosphate activator present at AC10; Potency, µM; actives 1.2% (n = 51,000); AID 361; in the data active means potency below about 11 µM; inconclusive means mostly about 12 µM to 25 µM; inactive means weaker than that;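 the screen sought inhibitors and activators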;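 further: potency means the concentration at half of the fitted maximal effect; scaled between full activation by ribose 5 phosphate and full inhibition by luteolin; about four in five hits inhibit and the cells do not say which; series up to 57 µM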
An asterisk follows results filed as active; i = inactive; ? = inconclusive; . = not tested or not shown.

YjeE inh | Bst PK mod | mol
i | . | CCC/C=C(\CCC)C(NC(=O)c1ccccc1)c1ccc(C(=O)OC)cc1 (stereo not given)
i | >57 | Cc1oc(-c2ccc3c(c2)OCCO3)cc1C(=O)O
i | . | NC(N)=NC(N)=Nc1ccc(C(=O)O)cc1
i | >57 | N#CN=C1SCCS1
i | >57 | CC12CCC(=O)N1c1ccccc1C(=O)N2c1ccccc1 (stereo not given)
i | . | Cn1c(=O)oc2cc(S(=O)(=O)NCCCN3CCCC3=O)ccc21
i | 5.8* | CCOC(=O)Cn1nc(-c2ccc(Cl)cc2)cc1N
i | . | CN(C)c1ccc(-c2ccncc2)cc1
i | >57 | CCOc1ccccc1N(CC(=O)Nc1ccccc1C(=O)NCc1ccco1)S(C)(=O)=O
. | >11 | CCOc1ccc(CCNC(=O)C(O)c2ccccc2)cc1 (stereo not given)
i | >57 | Cc1cc(NC(=O)CSc2nnc(-c3ccco3)n2Cc2ccco2)no1
i | . | O=C(CCc1ccccc1)NC1CCSC1=O (stereo not given)
i | . | Cc1cnc(CNc2nc(-c3ccccc3Cl)nc3ccccc23)cn1
i | . | CCCCCC1NC(=O)NC1CCCCCC(=O)O (stereo not given)
i | . | CCOC(=O)NC(Nc1nnc(SCC)s1)(C(F)(F)F)C(F)(F)F

(listing goes on)
YjeE inh | Bst PK mod | mol
i | . | O=c1c(-c2cccs2)nc2cncnc2n1Cc1ccc(F)cc1
i | >57 | CC1CCN(c2nncc3ccccc23)CC1
i | . | CCN(CC)S(=O)(=O)c1cc(C(=O)Oc2ccccc2OC)ccc1OC
i | . | CCCS(=O)(=O)n1nc(-c2ccc(OC)cc2OC)cc1N
i | >57 | COc1ccc(NC(=O)C2C(=O)NC3(C)CC2c2ccccc2O3)cc1 (stereo not given)
i | >57 | CCOC(=O)c1ccc(NC(=O)CSc2n[nH]c(-c3ccncc3)n2)cc1
i | . | COCC(C)NC(=O)c1cc(-c2cccc(OC)c2)on1 (stereo not given)
i | >57 | O=C(CCCc1nc2ccccc2s1)N1CCN(S(=O)(=O)c2cccs2)CC1
i | >57 | COc1ccc(NC2CCN(C3CC(=O)N(c4ccc(F)c(Cl)c4)C3=O)CC2)cc1 (stereo not given)
i | >57 | COc1cc(C2C(=O)N(C3CCCC3)CC(=O)N2Cc2ccco2)ccc1OC(C)C (stereo not given)
i | . | C[C@@](Cc1ccc(O)c(O)c1)(NN)C(=O)O
i | . | Cc1cc(OCC(=O)NCCN2CCOCC2)ccc1Br
i | >57 | O=S(=O)(Nc1nc2ccccc2nc1NCc1ccco1)c1ccccc1
i | >57 | O=C(NCCCN1CCOCC1)c1c(F)cccc1F
i | . | CCOC(=O)c1c(NC(=O)c2ccc(Br)o2)sc(C)c1CC

(more compounds)
YjeE inh | Bst PK mod | mol
i | . | COc1cc(OC)c(C(=O)Nc2ccc(N(C)C)cc2)cc1OC
i | . | Cc1ccc(O)c(-c2cc(C(=O)NCc3ccncc3)[nH]n2)c1
i | >57 | CS(=O)(=O)N(CCc1ccccc1)CC(=O)N1CCN(c2ccccc2)CC1
i | >57 | CCOC(=O)C1C(=O)CC(C)(O)C(C(=O)OCC)C1c1ccc(C)s1 (stereo not given)
i | 0.095* | CCn1c(C)nc2cc(-c3nc4n(n3)Cc3ccccc3-4)ccc21
i | >57 | CSc1ccc(Cl)c(C(=O)OCC(=O)N2CC(C)OC(C)C2)c1 (stereo not given)
i | ? | C/C(N)=C(/C#N)C(=O)CSc1nnc(Nc2c(C)cccc2C)s1
i | >57 | Cc1nc2c(ccc3nc(NC(=O)c4ccc(S(=O)(=O)N(C)C)cc4)sc32)s1
i | . | O=C(CCC(=O)OCC(F)(F)C(F)F)NCc1ccccc1
i | >57 | CC(=O)c1sc(NC(=O)C=C(C)C)nc1C
i | >57 | CCCCOC(=O)CSc1nnc(-c2cc(OC)c(OC)c(OC)c2)o1
i | >57 | Cc1ccc(-n2c(SCC(=O)N3CCOCC3)nnc2-c2cccnc2)cc1
i | . | COCn1c(-c2ccc(OC)c(OC)c2)nc2ccccc21
i | >57 | COc1cc(C2C(C#N)=C(N)Oc3c2oc(CO)cc3=O)ccc1OC(C)C (stereo not given)
i | >57 | Cc1nn(-c2ccccc2)c(Cl)c1C1C(C#N)=C(N)OC2=C1C(=O)CC(C)(C)C2 (stereo not given)

Compound profiles, from the list above:
CS(=O)(=O)N(CCc1ccccc1)CC(=O)N1CCN(c2ccccc2)CC1 as listed: YjeE inh: i; Bst PK mod: >57
Cc1ccc(O)c(-c2cc(C(=O)NCc3ccncc3)[nH]n2)c1 as listed: YjeE inh: i; Bst PK mod: .

New compounds follow:
YjeE inh | Bst PK mod | mol
i | >57 | Cc1ccc(NC(=O)COC(=O)Cn2c(C)csc2=O)cc1C
i | >57 | O=C(O)c1csc(Br)c1Br
i | . | O=C(NCCC1=CCCCC1)C1CCN(S(=O)(=O)c2cccc3cccnc23)CC1
i | >57 | COc1cc(S(=O)(=O)N2CCN(C)CC2)ccc1Cl
i | >57 | CC(Oc1ccccc1)C(=O)Nc1ccc(S(=O)(=O)NCC2CCCO2)cc1 (stereo not given)
i | . | CCOC(=O)c1c(NC(=O)OC)sc(C(=O)N(CC)CC)c1C
i | . | COc1cccc(-c2nc(CS(=O)(=O)CC(=O)NCc3ccc(Cl)cc3)c(C)o2)c1
i | . | COc1ccc(-c2cc3ccccc3n2CC(O)CN2CCN(CCO)CC2)cc1 (stereo not given)
i | >57 | Cn1c2ccccc2c2c(C(=O)N3CCN(c4ccccn4)CC3)cn(C3CCCC3)c(=O)c21
i | >57 | CCOC(=O)c1ccc(NC(=O)C(C)NS(=O)(=O)c2ccc(OC)cc2)cc1 (stereo not given)
i | >57 | CCCn1c(SCC(=O)NC(C)(C)C)nnc1C(C)C
i | . | CCOCCO
i | >57 | N#CCCn1ccc(NC(=O)c2ccc(Cl)cc2)n1
i | . | Cc1sc2nc(SCC(=O)N3CCCC3)[nH]c(=O)c2c1C
i | >57 | CCC(C)C(=O)Nc1nnc(-c2cccs2)s1 (stereo not given)

(further entries)
YjeE inh | Bst PK mod | mol
i | >57 | O=S(=O)(NCc1cn2ccsc2n1)c1ccc2c(c1)OCCO2
i | >57 | Cc1csc(SCC(=O)N2CCN(S(=O)(=O)c3ccccc3)CC2)n1
i | >11 | CN1CCN(CC(=O)N2c3ccccc3C(=O)Nc3cccnc32)CC1
i | >57 | CCOC(=O)c1ccc(NC(=O)CSc2nnc(CNC(=O)c3ccccc3F)o2)cc1
i | >57 | CCC(C)(C(=O)NC1CCCC1)N(Cc1cccs1)C(=O)Cc1cccs1 (stereo not given)
i | >57 | N#Cc1c(C(F)(F)F)cc(-c2ccco2)nc1SCc1ccccn1
i | >57 | O=C(Nc1ccc2nsnc2c1)c1cccs1
i | >57 | Cc1ccc(S(=O)(=O)NCC(=O)N(CC(=O)NC2CCCC2)c2ccc3c(c2)OCCO3)cc1
i | >57 | CCn1cc(C(=O)N(CCCN2CCOCC2)Cc2ccco2)c(=O)c2ccc(C)nc21
i | >57 | Cn1c(SCC(N)=O)nnc1C1CCN(C(=O)NC2CCCCC2)CC1
i | . | N=C(N)S/C=C\C(=O)O
i | >57 | Cc1csc(NC(=O)C2C3C=CC(O3)C2C(=O)O)n1 (stereo not given)
i | >57 | NC(=O)CSc1nnc(-c2cccnc2)n1CCc1ccccc1
i | >57 | Cc1cc(Cl)c(S(=O)(=O)Nc2ccc3c(c2)OCO3)cc1OCC(N)=O
i | >57 | Cc1cc(C)c2[nH]c(=O)c(CN(CC3CCCO3)C(=O)c3cnccn3)cc2c1 (stereo not given)

Shown as a hit in Bst PK mod (from the list above):
YjeE inh | Bst PK mod | mol
i | 5.8* | CCOC(=O)Cn1nc(-c2ccc(Cl)cc2)cc1N
i | 0.095* | CCn1c(C)nc2cc(-c3nc4n(n3)Cc3ccccc3-4)ccc21

In the list so far, 3 have bromine:
YjeE inh | Bst PK mod | mol
i | . | Cc1cc(OCC(=O)NCCN2CCOCC2)ccc1Br
i | . | CCOC(=O)c1c(NC(=O)c2ccc(Br)o2)sc(C)c1CC
i | >57 | O=C(O)c1csc(Br)c1Br

Next compounds
YjeE inh | Bst PK mod | mol
i | . | C=CCCCC
i | >57 | CCc1ccc(NC(=O)Cn2c(SC)nc3ccccc32)cc1
i | >57 | CCOC(=O)c1c(C)[nH]c(C(=O)Cn2nnc(-c3ccccc3Cl)n2)c1C
i | >57 | CCOc1ccccc1-n1c(SCC(=O)N2CCCC2)nnc1-c1ccoc1C
i | >57 | CC1CCN(CCc2nc3cc(NS(=O)(=O)c4ccc(F)cc4)ccc3n2C)CC1
i | >57 | COC(=O)c1cc(OC)c(OC)cc1NC(=O)c1ccoc1C
i | . | Cc1nc(N2CCN(c3ccccc3)CC2)c2c3c(sc2n1)CCC3
i | >57 | Cc1cc(C)c2c(n1)nn1c(NCCN3CCOCC3)cc(C)nc21
i | >57 | Cc1cc(C(=O)CSc2nnc(-c3ccccc3)n2C)c(C)n1C
i | >57 | COc1ccc(C)cc1NC(=O)c1ccc2c(c1)OCO2
i | >57 | COc1ccc(N2CCN(C(=O)c3cn(C4CCCC4)c(=O)c4c3c3ccccc3n4C)CC2)cc1
i | >57 | COc1ccc(-c2nc3nc(C)c(Cc4ccccc4)c(=O)n3[nH]2)cc1
i | >57 | Cc1ccc(S(=O)(=O)NCCC(=O)N2CCN(Cc3ccccc3)CC2)cc1
i | . | O=C(C1CCCN1S(=O)(=O)c1cccc2cccnc12)N1CCN(c2ccccc2)CC1 (stereo not given)
i | . | Cc1ccc(NC(=O)C2CCN(S(=O)(=O)c3cccc4cccnc34)CC2)nc1

(more compounds)
YjeE inh | Bst PK mod | mol
i | >57 | O=C(CSc1nc2c(c(=O)n1-c1ccc(Br)cc1)SCC2)NCC1CCCO1 (stereo not given)
i | >57 | CC(C)C(OC(=O)c1cc2occc2n1C)C(=O)NCc1ccc2c(c1)OCO2 (stereo not given)
i | . | CC(=O)Nc1ccc2nc(-c3cccs3)[nH]c2c1
i | >57 | O=C(c1cnc(N2CCN(c3ncccn3)CC2)c2ccccc12)N1CCN(c2ncccn2)CC1
i | >57 | Cc1cc(NS(=O)(=O)c2ccc(-c3ccccc3)cc2)no1
i | . | COC(=O)c1sccc1NC(=O)c1cccnc1
i | >57 | N#Cc1c(N)oc(-c2cccs2)c1-c1cccs1
i | >57 | CCOC(=O)c1cc2sccc2n1CC(=O)Nc1ccc(OC)cc1OC
i | . | CCCn1c(C)nc2c(NCCCCN(CC)CC)nc(C)nc21
i | >57 | CCc1nnc(NC(=O)CSc2nnc(CSc3nc(C)cc(C)n3)n2C)s1
i | . | COc1cccc(C2CC(c3ccc(Cl)cc3)n3nc(N)nc3N2)c1 (stereo not given)
i | . | COc1cc(-c2nc(-c3ccc(Br)o3)no2)cc(OC)c1OC
i | . | COC(=O)c1ccc(C(NC(=O)OCc2ccccc2)/C(F)=C/[C@@H](C)C(=O)N(C)Cc2cccnc2)cc1 (stereo not given in full)
i | >57 | O=C(COc1ccccc1Cl)NCc1ccco1
i | >57 | Cc1ccc(-c2nc3ncccn3c2Nc2ccc3c(c2)OCO3)o1

(listing goes on)
YjeE inh | Bst PK mod | mol
i | . | C[C@H]1C=C2C=C[C@H](C)[C@H](CC[C@@H]3C[C@@H](O)CC(=O)O3)[C@H]2[C@@H](OC(=O)[C@@H](C)CCO)C1
i | >57 | CCC(=O)NCc1nc2ccccc2n1Cc1ccccc1F
i | . | CC(C)C[C@@H](CC(=O)N[C@@H](CCC(=O)O)CC(=O)O)NC(=O)[C@@H]1CCCC[C@H]1NC(=O)C[C@@H](NC(=O)C[C@H](CO)NC(=O)[C@@H]1CNCC[C@H]1N)C(C)C
i | >57 | COc1ccc(NC(=O)c2cc3n(n2)C(C(F)(F)F)CC(c2ccc4c(c2)OCO4)N3)cc1OC (stereo not given)
i | >57 | Cn1c(CNc2cccc(Cl)c2)nnc1SCC(=O)OC1CCCCC1
i | >57 | COc1ccc(CC(CC(=O)O)C(=O)Nc2ccc(OC)cc2)cc1 (stereo not given)
i | >57 | O=C(O)CCC(=O)OC1CC2CCC1C2 (stereo not given)
i | >57 | Cc1c(NC(=O)COC(=O)Cc2ccc(Cl)cc2)c(=O)n(-c2ccccc2)n1C
i | . | CC(=O)N[C@H]1[C@@H](O[C@@H](C)C(=O)O)[C@H](O)[C@H](CO)O[C@@H]1O
i | >57 | Cc1cccc(N(C(=O)Cn2nnc3ccccc32)C(C(=O)NCc2ccco2)c2ccncc2)c1C (stereo not given)
i | . | O=C1NC(c2ccco2)Nc2sc3c(c21)CCN(Cc1ccccc1)C3 (stereo not given)
i | . | CO[C@@H]1/C=C\O[C@]2(C)Oc3c(C)c(O)c4c(O)c(c(/C=N\N5CCN(C)CC5)c(O)c4c3C2=O)NC(=O)/C(C)=C\C=C/[C@H](C)[C@H](O)[C@H](C)[C@H](O)[C@H](C)[C@H](OC(C)=O)[C@@H]1C
i | >57 | COc1cc(C(=O)OC(C)CN2CCOCC2)cc(OC)c1OC (stereo not given)
i | >57 | OC(COc1ccc(Cl)cc1)CN1CCCCC1 (stereo not given)
i | . | Cc1ccc(-c2ccc(CCC(=O)O)n2C(C)C)cc1
i | >57 | Cc1ccc(NC(=O)C2CCCNC2=O)nc1 (stereo not given)
i | . | c1ccc(-c2ccc(-c3nc(-c4ccccn4)no3)cc2)cc1
i | >57 | COc1ccccc1CNc1nc2nc(C)c(C)c(=O)n2[nH]1

This is a subset; count on the stated rates, not on these rows.
